# CtBP-E1A blk – blocks the CtBP interaction with E1A. AlphaScreen GST-E1A/His-CtBP binding, 1536-well; hits give low values; control for the full effect not named in the record. activity change, % (concentration not given with the values). 340,000 tested, 0.49% active; in the data active means activity change below about -65%; inconclusive means about -30% to -65%; inactive means above about -30%; further: on the % scale 0 is the no-effect control and ±100 the full control effect
#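 AlphaScreen with 125 nM GST-E1A and 125 nM His-CtBP (5X stocks) in Tris pH 8.0, 300 mM NaCl, BSA, Tween 20, TCEP. Compounds preincubated 2 h at 37 deg C, then glutathione donor/nickel acceptor beads added for 1 h at 37 deg C in dark.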
# TRPML1 blocker – blocks the human TRPML1 channel; Q9GZU1; TRPML1-inducible cells, Ca2+ dye fluorescence, FDSS; hits give low values; inhibition of EC80 agonist-evoked calcium signal; activity change, negative = inhibition, % (concentration not given with the values); 390,000 tested, 0.02% active; AID 624415; in the data active means activity change below about -50%; inconclusive means about -30% to -50%; inactive means above about -30%;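 further: stimulus is agonist 54-4 at its EC80 concentration; on the % scale 0 is the no-effect control and ±100 the full control effect; compound concentration not given in the record; the text of the record puts the active cut at -80%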
# Target sequence (Q9GZU1 whole entry, looked up): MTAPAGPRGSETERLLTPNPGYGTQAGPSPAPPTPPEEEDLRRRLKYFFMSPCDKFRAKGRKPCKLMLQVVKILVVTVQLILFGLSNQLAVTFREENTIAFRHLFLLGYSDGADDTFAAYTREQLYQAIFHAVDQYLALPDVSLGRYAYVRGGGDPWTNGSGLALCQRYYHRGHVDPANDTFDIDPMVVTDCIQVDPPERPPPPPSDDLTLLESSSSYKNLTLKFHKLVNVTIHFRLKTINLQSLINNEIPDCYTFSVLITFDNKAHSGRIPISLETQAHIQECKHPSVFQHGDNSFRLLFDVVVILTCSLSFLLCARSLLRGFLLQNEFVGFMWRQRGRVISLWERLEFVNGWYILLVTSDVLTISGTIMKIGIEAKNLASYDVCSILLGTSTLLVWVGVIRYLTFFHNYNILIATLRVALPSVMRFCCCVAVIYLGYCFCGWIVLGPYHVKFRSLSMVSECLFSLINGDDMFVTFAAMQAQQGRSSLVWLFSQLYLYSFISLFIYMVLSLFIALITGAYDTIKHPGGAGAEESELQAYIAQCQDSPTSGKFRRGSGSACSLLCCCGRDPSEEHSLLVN
#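 TRPML1-DL cells, Tet-induced overnight (~16 h, 37 °C) at 1,500 cells/well, were loaded with Ca8 no-wash dye plus quencher for 45-90 min at room temperature. Compounds were pinned during FDSS kinetic reading; agonist 54-4 at EC80 (4 uM final) then added.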
# Six1-Eya2 inh – inhibitors of human Six1/Eya2 interaction; AlphaScreen GST-Six1/His-Eya2 binding, biochemical; hits give low values; control for the full effect not named in the record; Q15475+O00167; 360,000 tested, 0.56% active; activity change, % (test concentration not listed); in the data active = activity change below about -65%; inconclusive = about -30% to -65%; inactive = above about -30%; further: on the % scale 0 is the no-effect control and ±100 the full control effect; compound concentration not given in the record
#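 Compounds are tested against tagged Six1 and Eya2 proteins bridged by glutathione donor and nickel acceptor beads; after a one-hour incubation at 37 °C without light, AlphaScreen emission is recorded.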
# TRPML1 agonist – activates the human TRPML1 channel. Q9GZU1. TRPML1-expressing cells, Ca2+ dye fluorescence, FDSS; host cell line not named in the record; reference of the full effect not given here. activation, % (no concentration beside the values). 410,000 tested, 0.12% active. AID 624414; in the data active = activation above about 50%; inconclusive = about 30% to 50%; inactive = below about 30%; further: 0% is about no effect; the text of the record puts the active cut at 80%
#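 In this qHTS format, compounds were pin-transferred onto Ca8-dye-loaded TRPML1-DL cells induced with Tet overnight, and intracellular Ca2+ fluorescence was recorded kinetically for 110 s after a 10 s baseline. A subsequent 4uM final 54-4 (EC80) addition followed by a second 110 s read served as the antagonist phase.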
# PINK1 expr mod – PINK1 expression modulation. PINK1 immunofluorescence, high-content cytometry, 24 h. Potency, µM (top dose mostly 76.6 µM), for the others: at the highest dose activation (PINK1 increase), hits mostly activators. 410,000 tested, 0.2% active. AID 624263; active = well fitted activation curve with a large enough effect; inconclusive = small, poorly fitted or top-dose-only effect; inactive = flat fitted curve, though single readings scatter; cell line not stated here;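 further: potency means the concentration at half of the fitted maximal effect; % of control where 0% means no effect; nearly all actives have a fitted effect of over 65% in size; a mitochondrial uncoupler was the plate control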
#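 A stable cell line was treated with compounds at 5 concentrations for 24 hours, with CCCP as control. PINK1 levels and mitochondrial localization were measured by immunofluorescence with mitochondrial, cell and nuclear markers after fixation, read by laser-scanning cytometry.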
# D2 ag – human D2 receptor agonism in beta-arrestin assay | 360,000 tested, 0.084% active | P14416 | DiscoveRx PathHunter D2 beta-arrestin, luminescence, 90 min; 100% = 57 uM dopamine signal | activation, % (concentration not given with the values); in the data active = activation above about 40%; inconclusive = about 15% to 40%; inactive = below about 15%; further: compound concentration not given in the record; the text of the record calls up to 30% inactive
# Target sequence (P14416 whole entry, looked up): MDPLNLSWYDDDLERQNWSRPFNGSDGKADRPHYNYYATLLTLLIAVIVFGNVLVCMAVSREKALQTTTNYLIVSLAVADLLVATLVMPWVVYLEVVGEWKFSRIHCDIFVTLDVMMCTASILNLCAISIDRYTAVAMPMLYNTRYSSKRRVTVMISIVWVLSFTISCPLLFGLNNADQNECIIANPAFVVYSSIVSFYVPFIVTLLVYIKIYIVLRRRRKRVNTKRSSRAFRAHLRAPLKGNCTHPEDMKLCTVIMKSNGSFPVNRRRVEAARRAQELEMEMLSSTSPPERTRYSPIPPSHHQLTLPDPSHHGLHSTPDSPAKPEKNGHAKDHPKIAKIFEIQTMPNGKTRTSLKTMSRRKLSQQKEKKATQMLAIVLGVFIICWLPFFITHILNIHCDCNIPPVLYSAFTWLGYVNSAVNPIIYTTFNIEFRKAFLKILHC
#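 DiscoveRx PathHunter D2 beta-arrestin cells (2,100/well) attached overnight, then compound-stimulated 90 min at 37 C in HBSS/10 mM HEPES/0.1% Tween-20 buffer; beta-galactosidase complementation read by luminescence after 1 h at ambient temperature. Dopamine 57 uM final (EC100) as control.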
# Numbers without * were called inactive; ? = inconclusive; nt = not tested or not shown.
SMILES,CtBP-E1A blk,TRPML1 blocker,Six1-Eya2 inh,TRPML1 agonist,PINK1 expr mod,D2 ag
NC(=O)c1ccccc1-c1nc(-c2ccccc2)no1,2,-8,0,0.4,-0.6%,-0.8
CC(C)C(NS(=O)(=O)c1cccc2nsnc12)C(=O)NC1CCCCC1C (stereo not drawn),-16,-21,4,0.6,-1.7%,-2.1
Cc1ccc(C(=O)N2CCCC(Nc3cccc(F)c3)C2)cc1N1CCNC1=O (stereo not drawn),3,17,1,0.4,-0.6%,0.4
COc1ccc(OC(=O)c2ccncc2)cc1,33,3,19,0.5,-2.1%,-2.9
O=C(NN=C1CCCC1)c1ccc(O)cc1O,-12,26,-15,0.9,0.8%,?
CCOCCCn1c(=S)[nH]c2cc(C(=O)NC3CCCC(C)C3C)ccc2c1=O (stereo not drawn),3,9,2,-1.4,2.5%,-0.5
CCOc1ccccc1C(=O)NCC(=O)NCC(C)(C)N1CCOCC1,-2,-6,9,0.0,-0.3%,-6.1
O=C(CNC(=O)c1cc(Cl)cc([N+](=O)[O-])c1)NC1CC1,4,1,8,0.1,-1.9%,7.1
COc1ccc(C2c3ccsc3CCN2C(C)=O)cc1 (stereo not drawn),nt,-11,1,-0.6,0.7%,-2.3
O=C1N=C(N2CCOCC2)S/C1=C\c1cccs1,nt,-16,0,0.9,-0.7%,-0.8
CCCCCCCN1C2=NCCCN2c2ccccc21,-1,29,0,0.9,-2.1%,1.3
CSc1nnnn1-c1ccc(Cl)cc1,0,-3,4,-1.0,2.9%,?
COc1ccc(OC)c(NC(=O)CCNS(=O)(=O)c2ccc3[nH]c(=O)oc3c2)c1,1,-8,-1,-0.9,-2.3%,2.5
Cc1ccc2cc(CCNC(=O)c3ccc4c(c3)OCO4)c(=O)[nH]c2c1C,2,25,-3,-1.3,0.1%,-6.9
OCCN1CCN(CC(O)C(F)(F)F)CC1 (stereo not drawn),10,15,4,1.7,1.0%,-0.7
O=S(=O)(Nc1ccc(-c2ccc(NS(=O)(=O)c3ccccc3)cc2)cc1)c1ccccc1,-10,52,-6,2.4,5.5%,4.4
CCNc1nc(NCC)n2c(SCC(=O)Nc3ccccc3)nnc2n1,-1,-5,3,0.4,1.7%,-2.3
CN(C)CCNC(=O)CCCN1C(=O)c2cccnc2Oc2ccc(Cl)cc21,nt,-7,nt,0.9,-0.4%,nt
COc1ccc2c(C(=O)CN(C)C3CCCCC3)c[nH]c2c1,-1,-2,-1,-0.4,4.9%,-1.1
Cc1ccccc1-c1nc(SCC(=O)NCc2ccc(F)cc2)c2c(=O)n(C)c(=O)n(C)c2n1,nt,3,nt,2.1,0.0%,nt
O=Nc1ccc(NOC(=O)c2ccccc2)cc1,-2,7,0,1.4,3.5%,0.2
CSc1ccccc1NC(=O)COc1ccc(Cl)cc1C,33,-3,34,0.1,3.3%,-1.3
Cc1cccc(C)c1-n1cccc1/C=C1\SC(=S)N(c2cccc(C(=O)O)c2)C1=O,-8,16,-12,-0.3,3.8%,-4.7
COc1cc(CN2CCCC(C(=O)c3ccccc3SC)C2)cc(OC)c1 (stereo not drawn),-13,15,-24,0.7,-0.2%,-0.5
COc1ccc(-c2cn(CCO)nc2-c2ccc(OC)cc2)cc1,3,-1,5,0.4,-0.2%,-0.1

# 3 entries from above, with two lines to a compound.
# The line under a structure holds: CtBP-E1A blk	TRPML1 blocker	Six1-Eya2 inh	TRPML1 agonist	PINK1 expr mod	D2 ag
O=S(=O)(Nc1ccc(-c2ccc(NS(=O)(=O)c3ccccc3)cc2)cc1)c1ccccc1
 : -10	52	-6	2.4	5.5%	4.4
COc1ccc(-c2cn(CCO)nc2-c2ccc(OC)cc2)cc1
 : 3	-1	5	0.4	-0.2%	-0.1
O=C(NN=C1CCCC1)c1ccc(O)cc1O
 : -12	26	-15	0.9	0.8%	?

# Continued.
SMILES,CtBP-E1A blk,TRPML1 blocker,Six1-Eya2 inh,TRPML1 agonist,PINK1 expr mod,D2 ag
O=S(=O)(c1cccc(C(F)(F)F)c1)N1CCC(c2cc(-c3cccc4ccccc34)n[nH]2)CC1,-4,32,0,1.5,1.9%,-1.5
COc1ccc(OC)c(C2=NOC(C(=O)N3CCN(c4ccccc4)CC3)C2)c1 (stereo not drawn),-18,21,-10,1.4,2.0%,3.6
Cc1cccc(CS(=O)(=O)c2cn(CC(=O)N3CCOCC3)c3ccccc23)c1,4,15,7,0.0,-1.5%,1.2
CCCNC(=O)c1ccc(N2CCC3(CC2)CC(c2ccccc2)=NO3)c(NC(=O)c2ccco2)c1,nt,3,0,0.0,-0.4%,10
COc1ccccc1OCCNC(=O)c1cccc(S(=O)(=O)N2CC(C)OC(C)C2)c1 (stereo not drawn),2,-24,-2,1.3,0.6%,0.0
Oc1cc(O)cc(/C=C/c2ccc(O)c(O)c2)c1,-25,-6,?,0.5,-0.9%,2.6
CSc1ccc(-c2nc3ccc(C)cn3c2Nc2ccccc2C)cc1,nt,61,nt,2.7,-1.0%,nt
Cc1c(C(=O)N2CCCCC2)c(S(=O)(=O)N(C)Cc2ccco2)c(C)n1C,2,4,1,-0.2,-0.9%,2.3
O=C(CCC1CCCCC1)NNC(=O)c1cnccn1,3,-2,-1,0.2,1.5%,-3.3
O=C(C1CCC(CNc2c(N3CCCCC3)c(=O)c2=O)CC1)N1CCCCC1 (stereo not drawn),-1,-4,0,-0.9,0.9%,4.0
CCCc1cc(=O)oc2c(CN3CCOCC3)c(O)ccc12,0,0,5,-1.1,-1.0%,-1.9
COc1ccccc1COC(=O)c1cccc(S(=O)(=O)N2CCCC2)c1,6,66,16,3.7,0.5%,-3.4
C=CCN(c1ccccc1)S(=O)(=O)c1cccc2cccnc12,2,4,-5,0.6,1.5%,-3.8
COc1ccc(-c2coc3c(CN4CCCCC4C)c(O)ccc3c2=O)cc1 (stereo not drawn),nt,28,0,0.8,-0.8%,-1.6
CN(CC(=O)Nc1ccc(F)c(F)c1F)C(=O)Cn1cnc2c1c(=O)n(C)c(=O)n2C,-2,-1,8,0.2,0.1%,-3.2
CCCCN(CCCC)C(=O)CN(C)S(=O)(=O)c1ccc2c(c1)c(=O)n(C)c(=O)n2C,nt,-2,nt,-0.8,-0.6%,nt
CCOc1ccc(NC(=O)NCc2ccco2)cc1,5,5,-2,0.2,0.5%,-1.7
COc1ccccc1-c1nn2c(=O)cc(CN3CCN(C(=O)Nc4ccc(C)cc4Cl)CC3)nc2s1,nt,41,nt,-0.6,5.9%,nt
Nc1nc(Cl)nc2c1ncn2C1CC(O)C(CO)O1 (stereo not drawn),-18,3,5,0.0,-0.3%,-7.7
Cc1ccc2nc(SCCCCOc3ccccc3)[nH]c2c1,5,0,1,0.0,8.9%,-4.4
CCc1ccc(C(=O)COC(=O)C(NC(=O)C2CCC(C)CC2)C(C)C)cc1 (stereo not drawn),nt,10,nt,-1.0,2.1%,nt
COc1ccc(-c2cc(C(F)(F)F)nc(SCCC(=O)N3CCOCC3)n2)cc1,1,-12,9,0.1,7.6%,6.0
O=C(C1=C(O)C(=O)N(CCN2CCOCC2)C1c1cccc([N+](=O)[O-])c1)c1cc2ccccc2o1 (stereo not drawn),-17,9,-13,0.0,0.9%,-13
COc1ccc(C(=O)COC(=O)CCN2C(=O)C3C4CCC(C4)C3C2=O)cc1 (stereo not drawn),-12,19,-11,-0.3,0.1%,-5.6
CCc1nnc(NC(=O)/C=C/c2cccs2)s1,-3,-4,-10,-0.7,2.2%,-0.7

# An excerpt of the results above, for reference:
SMILES,CtBP-E1A blk,TRPML1 blocker,Six1-Eya2 inh,TRPML1 agonist,PINK1 expr mod,D2 ag
COc1ccc(-c2cc(C(F)(F)F)nc(SCCC(=O)N3CCOCC3)n2)cc1,1,-12,9,0.1,7.6%,6.0
O=C(C1=C(O)C(=O)N(CCN2CCOCC2)C1c1cccc([N+](=O)[O-])c1)c1cc2ccccc2o1 (stereo not drawn),-17,9,-13,0.0,0.9%,-13
COc1ccc(C(=O)COC(=O)CCN2C(=O)C3C4CCC(C4)C3C2=O)cc1 (stereo not drawn),-12,19,-11,-0.3,0.1%,-5.6
CCc1nnc(NC(=O)/C=C/c2cccs2)s1,-3,-4,-10,-0.7,2.2%,-0.7

# Next section.
SMILES,CtBP-E1A blk,TRPML1 blocker,Six1-Eya2 inh,TRPML1 agonist,PINK1 expr mod,D2 ag
Cc1nccn1CC(O)Cn1c2ccccc2c2ccccc21 (stereo not drawn),-13,8,0,0.1,-0.7%,-4.2
Cn1c2ccc(F)cc2c2nnc(NN)nc21,?,6,?,0.4,0.8%,2.6
O=C(COC(=O)c1cccc([N+](=O)[O-])c1)NNC(=O)c1cccs1,nt,-9,4,-1.0,1.7%,-3.8
Cc1cc(C)n2nc(S(=O)(=O)NCCc3ccccc3)nc2n1,0,-7,9,-0.1,-0.3%,-4.2
CC(C)OC(=O)/C(C#N)=C/c1c[nH]c2ccccc12,3,20,-7,0.9,10.0%,4.0
CC12CC3CC(C)(C1)CC(C(=O)NCc1ccncc1)(C3)C2,10,1,6,0.4,2.2%,-0.2
CCOc1cccc(NC(=O)Cn2nc(-c3ccc4c(c3)OCCO4)ccc2=O)c1,-4,11,-2,-1.3,8.3%,-2.0
O=C(c1ccc(CS(=O)Cc2ccccc2Cl)o1)N1CCN(c2cccc(Cl)c2)CC1 (stereo not drawn),-8,15,-10,-0.2,0.3%,-0.1
Cc1ccc(C)c(OCCC(=O)OCC(=O)Nc2cc(S(=O)(=O)N3CCOCC3)ccc2C)c1,3,4,-5,0.0,-0.5%,-2.8
Cc1nnc(NC(=O)CSc2nc(C(C)C)nc3ccccc23)s1,11,16,6,0.0,nt,1.3
COc1ccc(NC(=O)CSc2nnc(N)s2)cc1S(=O)(=O)N1CCCCC1,-5,-19,2,-0.1,0.7%,-2.4
C[C@@H]1CN([C@@H](C)CO)C(=O)CCCn2nncc2CO[C@@H]1CN(C)C(=O)c1cc(-c2ccccc2)on1,3,-5,3,-0.8,1.3%,-8.6
CC(=O)Nc1nc(C)c(-c2nc3ccc([N+](=O)[O-])cc3[nH]2)s1,2,nt,-7,nt,1.9%,-5.3
Cc1cc(C)n(-c2nc3ccccc3c(=O)n2OC2CCCCC2)n1,3,0,12,0.6,1.0%,-0.6
CC(C)c1ccc(C(C(=O)NC(C)(C)C)N(C(=O)CNC(=O)c2ccco2)c2cccnc2)cc1 (stereo not drawn),0,14,-2,-0.2,1.1%,-3.1
O=C(O)C12C3CCC(O3)C1(C(=O)O)C1CCC2O1 (stereo not drawn),18,-11,8,-0.4,-5.4%,-2.4
Cc1cccc(-c2nc3scc(CCNC(=O)c4ccccc4Cl)n3n2)c1,nt,1,nt,-0.6,-0.5%,nt
CCCCn1nnnc1C1(C)CCC(=O)N1Cc1cccc(F)c1 (stereo not drawn),1,nt,1,-0.2,-0.5%,nt

# Screens: PubChem BioAssay, National Center for Advancing Translational Sciences (NCATS)
